# Screening results deposited in PubChem BioAssay by National Center for Advancing Translational Sciences (NCATS).
# gsp antag = antagonists of gsp mutant (McCune-Albright syndrome). gsp-mutant cells, cAMP HTRF, 30 min; control for the full effect not named in the record. Potency, µM (highest dose often 76.9 µM), inactives show at the highest dose activity change, negative = inhibition, actives largely listed as inhibitors. actives 0.4% (n = 340,000). AID 624288; active = falling curve of any shape with a large fitted effect; inconclusive = falling curve, mostly with a smaller effect; inactive = flat or rising curve; cell line not stated here;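 note: intracellular cAMP measured with PDE inhibitor Ro 20-1724 present during compound exposure; potency is the fitted concentration of half-maximal effect; % is set by controls: 0 for no effect and ±100 for the full control effect; nearly all actives have a fitted effect of over 65% in size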
#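 G418-selected cells were plated in DMEM/10% FBS for 16-24 h at 37C, then treated with compounds plus the PDE inhibitor […] (300 uM solution added) for 30 min at 37C. Intracellular cAMP was measured by HTRF after 30 min lysis at room temperature.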
# TRPML1 ag = activates the human TRPML1 channel; actives 0.12% (n = 410,000); activation, % (concentration not given with the values); TRPML1-expressing cells, Ca2+ dye fluorescence, FDSS; host cell line not named in the record; reference of the full effect not given here; AID 624414; in the data active = activation above about 50%; inconclusive = about 30% to 50%; inactive = below about 30%; note: 0% is about no effect; the text of the record puts the active cut at 80%
# Target sequence (Q9GZU1 whole entry, looked up): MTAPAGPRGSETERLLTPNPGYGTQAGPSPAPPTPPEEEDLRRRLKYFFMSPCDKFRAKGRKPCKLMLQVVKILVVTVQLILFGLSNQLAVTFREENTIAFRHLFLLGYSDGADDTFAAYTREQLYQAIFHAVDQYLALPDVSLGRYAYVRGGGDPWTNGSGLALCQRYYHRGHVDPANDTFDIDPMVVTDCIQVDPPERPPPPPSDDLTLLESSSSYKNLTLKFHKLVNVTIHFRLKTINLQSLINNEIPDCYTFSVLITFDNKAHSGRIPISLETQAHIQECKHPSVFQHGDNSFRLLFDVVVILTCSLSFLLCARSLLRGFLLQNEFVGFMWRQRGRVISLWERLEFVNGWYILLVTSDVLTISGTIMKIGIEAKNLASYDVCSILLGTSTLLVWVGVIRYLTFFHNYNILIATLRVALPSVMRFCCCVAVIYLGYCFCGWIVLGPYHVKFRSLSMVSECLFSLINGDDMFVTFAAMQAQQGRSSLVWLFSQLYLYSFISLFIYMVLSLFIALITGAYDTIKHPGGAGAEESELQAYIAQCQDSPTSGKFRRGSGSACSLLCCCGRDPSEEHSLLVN
#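 Tetracycline-induced TRPML1-DL cells are seeded and incubated overnight before loading with a no-wash Ca2+ dye and quencher. Agonist activity is taken from the 110 s fluorescence read following compound pin-transfer on an FDSS, before EC80 54-4 challenge.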
# Menin-MLL FL inh = displaces fluorescein MLL peptide from human menin; Fluorescence polarization, fluorescein-MLL peptide displacement from menin; FP activity change, % at 61.4 µM; 290,000 tested, under 10 active; AID 1766; inconclusive = falling polarisation curve, or a change in total fluorescence; inactive = total fluorescence flat and polarisation flat or rising; no compound was filed as active; the % refers to the polarisation; negative = inhibition;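 note: % of control where 0% means no effect; inhibitors lower the polarisation; unlabelled MLL peptide was the positive control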
# ClpP mod = qHTS Assay for Activators of ClpP. purified B. subtilis ClpP, FRET peptide cleavage, 20 min. Potency, µM (doses to about 57.5 µM), inactives show at the top dose activity change, negative = active. actives 1.9% (n = 340,000); active = well fitted falling curve with a large enough effect; inconclusive = small, poorly fitted or top-dose-only effect; inactive = no such curve, though single readings can be large or run the other way; note: potency is the fitted concentration of half-maximal effect; the source files actives as falling curves though it sought activators and does not explain the sign; nearly all actives have a fitted effect of over 65% in size; many hits overshoot -100%
# Target sequence (P80244 whole entry, looked up): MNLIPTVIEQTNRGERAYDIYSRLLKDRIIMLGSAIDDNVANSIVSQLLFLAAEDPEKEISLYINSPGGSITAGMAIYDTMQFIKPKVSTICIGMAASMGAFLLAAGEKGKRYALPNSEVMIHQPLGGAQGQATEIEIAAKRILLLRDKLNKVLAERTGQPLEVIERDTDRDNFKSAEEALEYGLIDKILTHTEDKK
#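 ClpP 10 microg/mL final, pH 8 Tris/KCl buffer with BSA, glycerol, Tween-20; compound pinned in; FRET-FV substrate; RT 20 min; Ex320/Em430; ΔFRET vs ADEP 5.8 microM, DMSO, no enzyme.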
# gsp ag = agonists of gsp mutant (McCune-Albright syndrome) | gsp mutant cells, cAMP HTRF, 30 min; control for the full effect not named in the record | Potency, µM (series often up to 76.9 µM), for inactives: top-dose activation (cAMP increase), most hits filed as activators | actives 0.13% (n = 340,000) | AID 624287; active = well fitted activation curve with a large enough effect; inconclusive = small, poorly fitted or top-dose-only effect, or another doubt; inactive = no such curve, though single readings can be large or run the other way; cell line not stated here;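 note: phosphodiesterase inhibitor Ro 20-1724 added with compounds to block cAMP breakdown; potency is the fitted concentration of half-maximal effect; nearly all actives have a fitted effect of over 60% in size; about a fifth of the inactives were tested at one dose only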
#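 Cells in DMEM/10% FBS with G418 were pretreated with compounds in DMSO plus […] (300 uM stock) for 30 min at 37C. cAMP was measured by HTRF (cAMP-d2 plus anti-cAMP antibody-K) after 30 min at room temperature.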
# TRPML1 inh = human mucolipin-1 channel inhibition. Q9GZU1. TRPML1-inducible cells, Ca2+ dye fluorescence, FDSS; hits give low values; inhibition of EC80 agonist-evoked calcium signal. activity change, negative = inhibition, % (no concentration beside the values). actives 0.02% (n = 390,000). AID 624415; in the data active means activity change below about -50%; inconclusive means about -30% to -50%; inactive means above about -30%;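 note: stimulus is agonist 54-4 at its EC80 concentration; % is set by controls: 0 for no effect and ±100 for the full control effect; compound concentration not given in the record; the text of the record puts the active cut at -80%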
#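 TRPML1-DL cells, Tet-induced overnight (~16 h, 37 °C) at 1,500 cells/well, were loaded with Ca8 no-wash dye plus quencher for 45-90 min at room temperature. Compounds were pinned during FDSS kinetic reading; agonist 54-4 at EC80 (4 uM final) then added.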
# An asterisk follows results filed as active; ? = inconclusive; · = not tested or not shown; & = joins results of further samples; [ ] = remark or other dose.
cpd	SMILES	gsp antag	TRPML1 ag	Menin-MLL FL inh	ClpP mod	gsp ag	TRPML1 inh
1	COc1cccc(CNC(=O)c2ccc3c(c2)nnn3C2CCCC2)c1	·	-1.0	·	-0.1%	·	7
2	Cc1ccc(S(=O)(=O)N2CCC(C(=O)NNS(=O)(=O)c3ccc(Cl)cc3)CC2)cc1	-9%	0.4	1.0	0.9%	-32%[inhibitor]	10
3	CC(Sc1n[nH]c(N)n1)C(=O)NC1CCCCC1C (centres undefined)	7%	-0.3	·	4.2%	-7%	13
4	CCCN(C(=O)COC(=O)CCOc1ccccc1C)c1c(N)n(Cc2ccccc2)c(=O)[nH]c1=O	11%	-0.4	·	1.8%	-9%	-2
5	Cc1noc(C)c1COc1ccc(CC(=O)NCCc2ccccc2)cc1	4%	0.0	-1.9	1.5%	3%[15.4 µM]	21
6	COC(=O)c1sc(-c2ccc(C(C)(C)C)cc2)cc1NC(=O)COCC(=O)O	?	-0.2	-4.0	·	-7%[15.4 µM]	3
7	COc1cccc2[nH]c(C(=O)NCc3ccccc3)cc12	-42%	-1.8	-4.7	-0.2%	4%[15.4 µM]	3
8	CCc1ccccc1NC(=O)c1cc([N+](=O)[O-])ccc1N1CCOCC1	4%	1.0	·	0.0%	4%	-12
9	CC(=O)Nc1ccccc1C(=O)C(=O)Nc1cccc(C(=O)NCc2ccccc2)c1	20%	1.6	2.4	-1.4%	10%	18
10	CC(CNS(=O)(=O)c1ccc2c(c1)CC(=O)N2C)c1ccccc1 (centres undefined)	2%	0.8&-0.5	0.0	0.9%	4%	9&-17
11	Cc1ccc(Nc2nnc(-c3ccc(C)c(S(=O)(=O)N4CCOCC4)c3)c3ccccc23)cc1	·	-1.0	·	-1.4%	·	-1
12	COc1ccc(C2=NOC(Cn3nc(C(=O)NCc4ccc(C)cc4)cc3-c3ccccc3)C2)cc1 (centres undefined)	-24%	-0.7	·	-2.7%	13%	36
13	CCC(=O)N(Cc1cc(=O)[nH]c2ccccc12)c1ccccc1OC	-3%	0.6	0.9	·	-16%	7
14	Cc1cc(C)c(S(=O)(=O)Nc2ncn[nH]2)c(C)c1	-4%	-0.1	·	1.2%	4%	-11
15	Cc1nc2ncnn2c(C)c1CCC(=O)NCc1ccccc1Cl	·	-0.6	·	-7.3%	·	-10
16	O=C(NCC(NS(=O)(=O)OCC(Cl)(Cl)Cl)c1ccccc1)C(F)(F)F (centres undefined)	7%	-0.5	-3.9	-2.1%	·	1
17	CN(Cc1c(C(=O)N(C)Cc2ccccc2)nc2ccccn12)CC1Cc2ccccc2O1 (centres undefined)	-31%	2.9	-2.8	0.7%	-9%[15.4 µM]	-16
18	CCOC(=O)C1CCN(C(=O)COc2cccc3ccccc23)CC1	-3%	0.1	-6.6	·	-6%	-22
19	O=C(Nc1ccccc1)OC1CC2CC1C1CCCC21 (centres undefined)	-4%	-0.7	0.5	·	-13%	0
20	CCN(CC)C(=O)N1CCN(S(=O)(=O)c2ccc(C)cc2)CC1	-17%	-0.3	4.0	-0.5%	-18%	2
21	COc1ccc(C(=O)OCCCOC(=O)c2ccc(OC)cc2OC)c(OC)c1	7%	-0.2	·	-1.2%	1%	14
22	CC(NC(=O)c1cc2cc(Br)ccc2oc1=N)c1ccccc1 (centres undefined)	-2%	1.4	?	0.4%	1%	-4
23	CN(Cc1cccc(Cl)c1)C(=O)C1CCC(=O)N(C2CC2)C1 (centres undefined)	3%	0.3	4.6	-0.6%	-31%[inhibitor]	-6
24	COc1ccccc1/C=C/c1nc(C#N)c(NCCc2ccccc2)o1	·	0.5	·	3.8%	·	-1
25	CCn1c(CC(=O)Nc2ccccc2)nnc1SCC(=O)Nc1nncs1	7%	0.4	-1.4	·	18%	-4
26	C=CCn1c(SCc2c(F)cccc2Cl)nnc1-c1ccco1	?	0.9	3.8	-1.8%	-9%	26
27	COc1ccc(C(=O)N2CCc3ccccc32)cc1S(=O)(=O)N1CCOCC1	-1%	0.2	·	-1.6%	-17%	5
28	O=C(COc1cccc(Oc2ccccc2)c1)Nc1ncccn1	-11%	-0.2	4.1	-0.8%	11%	7
29	CCOC(=O)Cc1csc(NC(=O)COc2ccc3c(C)cc(=O)oc3c2)n1	-15%	0.2	7.5	3.7%	6%	5
30	c1cc2c(cc1CN1CCOCC1)OCO2	1%	0.9	2.5	0.9%	-8%	-11

# Full records, looked up by structure.
# Results for COc1cccc(CNC(=O)c2ccc3c(c2)nnn3C2CCCC2)c1 : gsp antag = ·; TRPML1 ag = -1.0; Menin-MLL FL inh = ·; ClpP mod = -0.1%; gsp ag = ·; TRPML1 inh = 7
# Results for COc1cccc2[nH]c(C(=O)NCc3ccccc3)cc12 : gsp antag = -42%; TRPML1 ag = -1.8; Menin-MLL FL inh = -4.7; ClpP mod = -0.2%; gsp ag = 4%[15.4 µM]; TRPML1 inh = 3

# Continued.
cpd	SMILES	gsp antag	TRPML1 ag	Menin-MLL FL inh	ClpP mod	gsp ag	TRPML1 inh
31	O=Nc1c(O)ccc2cc(S(=O)(=O)O)ccc12	-7%	-0.1	·	-4.2%	-19%	5
32	Cn1c(SCC(=O)N2CCN(C(=O)c3ccco3)CC2)nnc1-c1ccc(NS(C)(=O)=O)cc1	12%	1.0	0.2	·	?	-25
33	COc1ccc2c(CNCc3ccc(Cl)cc3)c(C(=O)O)n(Cc3ccccc3C)c2c1	·	-0.9	·	-13%	·	-3
34	COc1ccc(-n2nnnc2SCC(=O)NC2CC2)cc1	-11%	0.1	·	0.3%	-16%	1
35	N#Cc1ccc(N2C(=O)[C@@H]3C(C(=O)c4ccc5ccccc5n4)=NN[C@@H]3C2=O)cc1	4%	0.0	6.2	0.6%	23%	-7
36	O=C1Nc2ccc(S(=O)(=O)NCc3ccccn3)c3cccc1c23	4%	0.6	12	-3.2%	-4%[15.4 µM]	9
37	CCC(=O)N1CCN(C(=O)c2ccccc2)CC1	4%	-0.8	-2.6	0.6%	·	-4
38	CCOC(=O)C1CCCN(C(=O)c2ccccc2NC(C)=O)C1 (centres undefined)	19%	0.0	-0.4	2.1%	7%	15
39	COc1ccc(NC(C)=O)cc1S(=O)(=O)Nc1ccc(S(=O)(=O)N2CCCCC2)cc1	-6%	0.4	·	·	-33%[inhibitor]	-11
40	C(=N\Nc1nc(Nc2ccccc2)nc(Nc2ccccc2)n1)/c1ccncc1	6%	0.5	1.8	·	28%	-16
41	COc1ccc(OC)c(NC(=O)CN(c2ccccc2OC)S(=O)(=O)c2ccc(C)cc2)c1	·	-0.8	·	-1.9%	·	76
42	COCCCN1CC(=O)N2C(c3cccc(OC)c3)c3[nH]c4ccccc4c3C[C@H]2C1=O (some centres undefined)	0%	0.3	-14	·	-3%	9
43	COc1ccc(CC(=O)Nn2c(-c3ccccc3)nc3ccccc3c2=O)cc1	3%	0.5	2.4	-1.7%	-4%[15.4 µM]	-11
44	O=C(CSc1ccccc1C(=O)NCc1ccccc1)NC12CC3CC(CC(C3)C1)C2	-30%	1.4	-0.7	0.9%	-43%[inhibitor]	-21
45	CCOc1cc(S(=O)(=O)Nc2ncn[nH]2)ccc1Br	7%	-0.4	-4.8	1.9%	2%[15.4 µM]	-7
46	COc1ccc(Cl)cc1C(=O)NC1CC(C)(C)NC(C)(C)C1	·	0.1	·	-7.0%	-25%	4
47	Cc1ccc(-n2ncc(C(=O)N3CCN(C(=O)c4ccco4)CC3)c2C2CCN(C(=O)OC(C)(C)C)CC2)cc1	·	-0.5	·	4.9%	·	-5
48	COc1ccccc1CNC(=O)Cn1ccsc1=N	16%	0.4	-4.3	0.7%	-39%	7
49	CCN(C#N)c1nc(NC(C)C)nc(NC(C)(C)C)n1	10%	0.0	1.0	·	3%[15.4 µM]	-3
50	Cc1sc2ncn(CC(=O)Nc3cccc(C(F)(F)F)c3)c(=O)c2c1S(=O)(=O)N1CCC(C)CC1	·	-0.2	·	-2.9%	·	-9
51	Cc1noc(NC(=O)c2ccc(Cl)c(Cl)c2)c1Cl	-4%	0.7	-4.8	-0.6%	-135%[inhibitor]	4
52	NC(=S)NN=C1CCSCC1	?	-0.3	·	·	-20%	-8
53	CC1CCC(C(=O)NC(C(=O)NCc2ccccn2)C(C)C)CC1 (centres undefined)	11%	-0.5	3.6	2.0%	-24%	-12
54	Cc1ccc(N(CC(=O)Nc2cc(C)cc(C)c2)S(=O)(=O)c2cccc3nonc23)cc1	-6%	-0.5&1.8	6.4	-2.7%&-0.5%	-27%	4&-3
55	CCn1cc(C(=O)NP(=O)(Nc2ccc(C)cc2)Nc2ccc(C)cc2)c2ccccc21	2%	0.4	0.2	-2.1%	?	18
56	CCn1c(SCC(=O)c2ccccc2)nnc1-c1cnccn1	1%	-0.2	4.1	-2.6%	-3%	-3
57	CCCC(=O)N(c1ccc2oc3c(c2c1)CCCC3)S(=O)(=O)c1cc(C)ccc1C	·	1.6	·	-0.8%	·	7
58	O=C(Nc1ccc2ccccc2c1)Nc1ccc2snnc2c1	32µM*	2.8	0.5	-4.9%	7%	15
59	COC(=O)CN1CCN(C(=O)c2ccc(F)cc2)c2ccccc2C1	-1%	-0.4	3.3	176%	7%	-4
60	Cc1ccnc(SC2CC(=O)N(c3ccc(F)cc3)C2=O)n1 (centres undefined)	4%	-0.4	2.2	1.5%	-8%[15.4 µM]	2
61	O=C(CSc1ncn(-c2ccccc2)n1)Nc1nccs1	8%	0.5	-1.0	1.2%	-27%	-5
62	Cc1cccc(C)c1NC(=O)c1oc2ccc3c(c2c1C)C(=O)CC(C)(C)O3	·	0.2	·	4.1%	·	22
63	CN(c1ccccc1)S(=O)(=O)c1cccc(NC(=O)c2nn(C)c(=O)c3ccccc23)c1	?	-1.6	·	-12%	18%	2
64	COc1ccccc1CNC(=O)CN(C)c1nn2c(=O)cc(C)nc2s1	·	1.2	·	-0.6%	·	-9
65	COc1ccc(-c2cn[nH]c2-c2ccc(OCC(=O)NN)cc2O)cc1	-10%	·	0.4	-19%	-31%[inhibitor]	·
66	COc1nc(OC)nc(N2CCC(C(=O)NC3CCCCCC3)CC2)n1	0%	-0.3	3.9	-0.5%	-14%	22
67	Cc1ccc2c(c1)C=CC(C)(C)S2(=O)=O	8%	1.2	1.2	-1.4%	-12%	13
68	CC(C)C(=O)Nc1cccc(NC(=O)c2cccnc2)c1	13%	-0.4	3.9	0.5%	29%	-1
69	Nc1nc2ccccc2n1CCN1CCCC1	8%	-0.1	1.6	-0.2%	8%	-1
70	CCCNC(=O)c1nnsc1S(=O)(=O)c1ccc(Cl)cc1	11%	8.9	1.1	·	7%[15.4 µM]	-4
71	CCOC(=O)c1cc(C#N)c(N2CCN(C(=O)c3cccc(C(F)(F)F)c3)CC2)nc1C(F)(F)F	?	5.4	-0.3	·	22%	-14
72	COc1ccc(NC(=S)N2CCC(C(=O)N3CCCCCC3)CC2)cc1	1%	-0.4	-1.4	0.3%	?	-11
